Screens (PubChem BioAssay)
Autofluor counter – flagged as autofluorescent in microsphere protease counterscreen | compound autofluorescence counterscreen, microsphere flow cytometry; stronger effect = higher value | fluorescence intensity (concentration not given with the values) | hit rate 3.1% among 360,000 | AID 624483;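 active = at least 3 SD above the mean of all compounds, about 16000 in these data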;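 also: 100 nL of 1 mM stock went into each well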
BJeLR lethal – kills HRASV12-expressing BJeLR cells | AID 1554 | BJeLR (HRASV12) viability, CellTiter-Glo ATP luminescence, 48 h; reference of the scale not given here | inhibition, % (test concentration not listed) | hit rate 0.17% among 300,000;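 active = replicate mean above 50%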;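 also: 50 nL library stock added to about 25 µL; numbers are from one replicate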
Mtb hypoxia inh – inhibitors of hypoxia-regulated fluorescent reporter in Mycobacterium tuberculosis; M. tuberculosis hypoxia-regulated fluorescent reporter, fluorescence; hit rate 0.1% among 300,000; fluorescence inhibition, % (concentration not given with the values); AID 1159583;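 active = 35 to 45% if threefold the growth effect, above 45% if 1.5-fold the growth effect; inactive = the rest, general growth blockers included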;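 also: wells of about 50 µL received 100 nL stock; 0% = vehicle wells and 100% = reference inhibitor wells; whole bacteria with a GFP reporter of the hypoxia response; strong numbers were not always called active; many hits fall short of the cut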
RN4220 kill – S. aureus RN4220 growth inhibition; inhibition, % (test concentration not listed); hit rate 0.33% among 330,000; OD600, 16 h;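 active = z-score of -3 or lower and OD600 up to 0.18 on both plates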;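 also: plate controls were untreated cells for no effect and reference antibiotic for full effect; stock transfer was 100 nL into about 80 µL; one replicate is shown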
PrP UTR inh – suppresses PrP 5' UTR mRNA reporter expression; inhibition, % (test concentration not listed); cell-based PrP 5' UTR mRNA reporter, plate reader; hit rate 0.35% among 340,000;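 active = every replicate at 50% or more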;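 also: 0 = median of the neutral control wells; tested in H4 reporter cells; numbers are from one replicate; inactives centre near -14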
ugtP null kill – compounds lethal to S. aureus RN4220 ugtP deletion mutant; OD600 growth, 16 h; some inactives read as strong as hits; growth inhibition, % (concentration not given with the values); hit rate 0.54% among 330,000; AID 1259309;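 active = z-score under -3 and OD600 up to 0.15 on both plates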;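 also: plate controls were untreated wells for no effect and antibiotic for full effect; wells of about 80 µL received 100 nL stock; the first replicate is given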
Mtb hypoxia inh growth – recorded beside Mtb hypoxia inh, whose call it bears; growth inhibition, %; measured here: M. tuberculosis growth (absorbance);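 0% = vehicle and 100% = reference antibiotic; read after six days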
An asterisk follows results filed as active; x = no result given.

SMILES | Autofluor counter | BJeLR lethal | Mtb hypoxia inh | Mtb hypoxia inh growth | RN4220 kill | PrP UTR inh | ugtP null kill
OC[C@@H]1[C@@H](c2ccc(Cl)cc2)C(c2ccccc2)=NN1c1ccccc1 | 4233 | x | -1 | 7 | -15 | -25 | -31
CCOc1c2ccc(C(=O)NCc3ccc(OC)cc3)cc2nn1CCOC | 4041 | 8 | 9 | 12 | 5.2 | -8 | -1
CCOC(=O)c1c(C)[nH]c(C)c1C(=O)COC(=O)c1ccc(Cl)nc1 | 3769 | x | 11 | 13 | 3.3 | -8 | 5
CC(Sc1nccn1C)C(=O)Nc1ccccc1 (stereo not drawn) | 5758 | 1 | 4 | -3 | 2.0 | -5 | 5
CNc1oc(/C=C/c2ccccc2)nc1C#N | 2388 | -2 | 11 | 3 | 2.8 | -105 | 2
COCCCn1c(C)nnc1SCc1ccc(C(C)(C)C)cc1 | 3398 | 1 | 4 | 9 | 4.7 | -19 | -1
Cc1ccc(S(=O)(=O)Nc2ccccc2C(O)c2ccccc2)cc1 (stereo not drawn) | 4054 | -5 | 11 | -4 | 6.2 | -38 | -11
CCCCc1ccc(NC(=O)NCc2cccnc2)cc1 | 5899 | -1 | 5 | 10 | -0.4 | -3 | 10
CCOC(=O)c1c(N/N=C/c2cccnc2)n[nH]c1C | 3961 | -3 | x | x | x | -81 | x
O=C(NCC1CCCO1)c1cccc(Oc2ccc([N+](=O)[O-])cc2)c1 (stereo not drawn) | 5616 | 3 | 0 | 13 | 1.8 | -24 | 8
COc1cccc(C=NNc2snc(SC)c2C#N)c1 | x | x | 1 | -1 | 45 | x | 44
NC(=O)c1ccc(F)cc1 | 10395 | 3 | 19 | 5 | 6.1 | -27 | 3
COc1ccc(NC(=O)NC23CC4CC(CC(C4)C2)C3)cc1OC | 3315 | 7 | 0 | 16 | 20 | -19 | -4
CCN(C(=O)CCS(=O)(=O)c1cc2c(cc1Cl)NC(=O)CO2)c1ccccc1 | 5953 | -2 | x | x | 3.2 | -22 | 6
COc1ccc(-c2cnn3c4c(c(C)nc23)CCN4C2CCCC2)cc1OC | 17372* | 0 | 0 | 2 | 11 | -3 | -2
CC(C)[C@H](NC(=O)Nc1ccc2c(c1)OCCO2)C(=O)O | 20779* | -16 | 8 | 3 | 6.5 | -16 | 0
CN(C[C@H](Cc1ccccc1)N(C[C@@H](Cc1cccc2ccccc12)N(CCc1ccccc1)N=O)N=O)N=O | 4775 | -13 | x | x | x | -11 | x
O=C(CCN1C(=O)c2ccncc2C1=O)Nc1ccc2c(c1)OCCO2 | 4772 | -1 | x | x | 2.5 | -28 | 9
O=C(NCc1ccco1)c1ccc(S(=O)(=O)c2cccc(S(=O)(=O)N3CCOCC3)c2)cc1 | 7881 | -1 | 0 | -1 | -0.9 | -2 | 2
c1ccc(C2=NCCCN2)cc1 | 10923 | -2 | 3 | 5 | 6.7 | -15 | 1
COc1ccc(NC(=O)CC(C)=NNC(=O)c2ccncc2)c([N+](=O)[O-])c1 | x | x | x | x | 7.4 | x | 3
Cc1cccc(NC(=O)c2cc(N3C(=O)CCC3=O)ccc2Cl)n1 | 10965 | 12 | 5 | 13 | -5.2 | -15 | 8
Cc1c(NC(=O)c2nn(C)c(=O)c3ccccc23)c(=O)n(-c2ccccc2)n1C | 4040 | 1 | -2 | 1 | -3.4 | -10 | 2
Cn1nc(C(C)(C)C)cc1C(=O)NCc1ccc2c(c1)OCO2 | 4226 | -3 | 2 | -5 | 1.8 | 6 | 6
Cc1ccnc2nc(C(=O)OCCOc3ccc(F)cc3)nn12 | 4377 | -2 | 12 | -4 | 11 | -9 | 5
SMILES | Autofluor counter | BJeLR lethal | Mtb hypoxia inh | Mtb hypoxia inh growth | RN4220 kill | PrP UTR inh | ugtP null kill
C#CCOCCOCCOCCNc1nc(N2CCN(C(=O)[C@H](Cc3cc4ccccc4[nH]3)n3cc([C@@H](N)CC(C)C)nn3)CC2)nc(N2CCN(C(=O)[C@H](Cc3cc4ccccc4[nH]3)n3cc([C@@H](N)CC(C)C)nn3)CC2)n1 | 3019 | -8 | x | x | x | -7 | x
CCCn1c(=O)c(-c2nc3ccccc3[nH]2)c(O)c2ccccc21 | 3068 | 3 | 1 | 11 | 4.2 | -6 | 1
COc1cc([N+](=O)[O-])ccc1NC(=O)NNC(=O)C(C)Oc1ccc(F)cc1F (stereo not drawn) | 6150 | 1 | 2 | -3 | -3.3 | -5 | 8
CC[N+](CC)(CC)CC | 5862 | 7 | -9 | 1 | 2.4 | -29 | -7
CCN(CC)C(=O)Cn1cc(C(=O)C(=O)NCCc2ccccc2)c2ccccc21 | 4322 | 2 | 9 | -4 | 6.2 | -26 | 12
O=C(NCCN1C(=O)S/C(=C\c2cccnc2)C1=O)c1ccc([N+](=O)[O-])s1 | 5679 | 2 | 0 | -1 | 4.3 | -10 | 4
COc1ccc(NC(=O)N2CCCC2C(=O)Nc2ccc(C)cc2)cc1 (stereo not drawn) | 3484 | 0 | 3 | -3 | 1.2 | -12 | 6
Cc1ccc(/C=N/NC(=O)c2nnn(-c3nonc3N)c2CSc2ccccc2)o1 | 6842 | -10 | x | x | x | -11 | x
Cc1cc(C)n2c(SCC(=O)Nc3ccccc3C#N)nnc2n1 | 7762 | x | -5 | 0 | 5.2 | -22 | 7
Cc1c(/C=N/Nc2ccc([N+](=O)[O-])cn2)c2ccccc2n1Cc1ccccc1 | 5175 | 0 | x | x | x | -8 | x
c1ccc(-c2nnc(CSc3ccc4c(c3)OCCO4)o2)cc1 | 3808 | -8 | 17 | 8 | 7.7 | 49 | 4
CCOc1cc(C)c(Cl)cc1S(=O)(=O)n1ccnc1 | 3483 | -2 | -14 | -15 | 1.8 | -10 | 10
CCOc1ccc(Oc2ccc(S(=O)(=O)N3CCOCC3)cc2NC(=O)CCNC(C)=O)cc1 | x | -7 | 6 | 6 | -0.8 | -9 | 4
Nc1nc2c(c(=O)[nH]1)CN(Cc1ccccc1)CC2 | 2922 | 2 | -1 | 10 | -2.7 | -20 | -9
COc1ccc(NC(=O)c2c(SC)nsc2SC)cc1 | 2409 | -12 | x | x | 1.9 | -21 | 4
COc1ccc(C(=O)OC(C)CN2CCN(C)CC2)cc1OC (stereo not drawn) | 2456 | -6 | 1 | 7 | -3.4 | -26 | 10
O=C(CCCC(=O)NCc1ccccc1)NCc1ccccc1 | 2508 | -8 | 6 | 9 | 2.7 | -7 | -1
Cc1ccc(-n2nc(C)cc2NC(=O)COc2cc(C)cc3oc(=O)c4c(c23)CCC4)cc1 | 22051* | 1 | 0 | 3 | 0.3 | 1 | 2
Cc1sc2nc(SCC(=O)NCc3ccco3)n(C)c(=O)c2c1C | 3206 | -3 | 16 | 5 | -14 | -12 | -7
O=C(Nc1ccccc1C(F)(F)F)N1CCN(C(c2ccccc2)c2ccccc2)CC1 | 22149* | -5 | 7 | 11 | 3.2 | -3 | 13
CN(C)S(=O)(=O)c1cc(NC(=O)CN2CCN(c3ccccc3O)CC2)ccc1Cl | 3363 | x | -2 | 2 | 2.7 | 10 | 6
CC(Oc1ccccc1)C(=O)OCC(=O)Nc1ccc2c(c1)OCO2 (stereo not drawn) | 3852 | x | 3 | 2 | 4.4 | -13 | 3
Cc1cc(C(=O)NCC(=O)OCC(=O)N2CCCCCC2)ccc1[N+](=O)[O-] | 7566 | 18 | 10 | 2 | 8.0 | -21 | 3
O=C(CSc1nnc(-c2ccc(O)cc2)n1Cc1ccco1)c1ccccc1 | 3309 | -2 | 1 | 7 | 7.9 | -15 | -11
CC(=O)Nc1ccc(Sc2ccccc2C(=O)O)c(C(=O)O)c1 | 5761 | 5 | 13 | -3 | 2.8 | -10 | 7
SMILES | Autofluor counter | BJeLR lethal | Mtb hypoxia inh | Mtb hypoxia inh growth | RN4220 kill | PrP UTR inh | ugtP null kill
CN(Cc1ccc(C(F)(F)F)cc1)C(=O)c1ccc2ccccc2n1 | 4088 | 22 | 17 | 6 | 3.8 | -26 | -5
CCN(CC)CCCNC(=S)N(Cc1ccco1)Cc1cc2cc3c(cc2[nH]c1=O)OCCO3 | x | -13 | -7 | 1 | -11 | x | 0
Cn1c(O)c(C=NC2C(=O)C3(C)CCC2C3(C)C)c(=O)n(C)c1=O (stereo not drawn) | 3618 | -2 | x | x | 0.2 | -26 | 0
NC(=NOC(=O)c1ccccc1Br)c1ccc([N+](=O)[O-])cc1 | x | x | 11 | 12 | 4.3 | x | 6
CCOc1cc(C(=O)NCc2ccc(-c3nc4ccccc4o3)cc2)cc(OCC)c1OCC | 16439* | -2 | 12 | 4 | 9.0 | -19 | 9
CCSc1nnc(NC(=O)c2cc(OC)c(OC)c(OC)c2)s1 | 4464 | -4 | 2 | 2 | 5.8 | -25 | 8
O=C(NC(=S)N1CCCCC1c1cccnc1)c1ccc(Br)cc1 (stereo not drawn) | 4806 | -3 | 1 | -4 | 1.7 | 2 | 13
O=C(Nc1ncc2c(n1)CC(c1ccco1)CC2=O)c1ccc(Cl)cc1 (stereo not drawn) | 2549 | -6 | 0 | 10 | -11 | -7 | -11
CC(C)=CCN1CCN(Cc2ccc(N3CCNC3=O)cc2)CC1CCO (stereo not drawn) | 4812 | 10 | 7 | 10 | 3.1 | -13 | 3
O=C(Cn1c(-c2cncs2)nc2ccccc21)NCc1ccccc1 | 2181 | 3 | x | x | 1.7 | -16 | 0
